HNF4A DNA FP: change in binding of human HNF4 alpha to DNA | P41235 | activity change, % at 10 µM | 360,000 tested, 0.3% active | HNF4a-FITC DNA binding, fluorescence polarization, 1 h; in the data active = activity change above about 30%, passing the limit was not always enough;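 also: controls were the assay level and a saturating level of protein; the project sought stronger binding though the title names inhibitors; some compounds called inactive have numbers as strong as hits; positive values seem to mean higher polarization but the record does not say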
Target sequence (P41235 whole entry, looked up): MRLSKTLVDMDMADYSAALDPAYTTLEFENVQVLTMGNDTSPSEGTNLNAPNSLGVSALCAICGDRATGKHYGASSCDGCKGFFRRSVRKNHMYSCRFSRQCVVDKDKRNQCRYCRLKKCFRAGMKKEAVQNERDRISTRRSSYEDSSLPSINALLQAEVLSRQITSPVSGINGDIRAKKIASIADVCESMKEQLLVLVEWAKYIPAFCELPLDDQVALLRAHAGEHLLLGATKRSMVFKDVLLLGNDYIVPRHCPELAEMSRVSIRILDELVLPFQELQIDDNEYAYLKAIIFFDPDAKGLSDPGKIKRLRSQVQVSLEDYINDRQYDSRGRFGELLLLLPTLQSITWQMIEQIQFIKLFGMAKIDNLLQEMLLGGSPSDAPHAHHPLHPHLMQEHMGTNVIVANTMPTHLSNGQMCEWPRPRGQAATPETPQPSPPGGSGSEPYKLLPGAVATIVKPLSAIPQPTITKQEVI
AF4-AF9 inh: inhibitors of human MLL-AF4/AF9 interaction. inhibition, % at 10 µM. 350,000 tested, 0.47% active. AlphaScreen, biotin-AF4 peptide binding to FLAG-AF9. P42568;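 active = every replicate reaching a set inhibition limit, whatever the replicate mean, cut at about 25% in these data; inconclusive = mean inhibition reaches that limit but some replicates miss it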;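 also: 0% = plate neutral control median and 100% = total signal loss; the record names both 10 and 1 µM as test concentration; the first replicate is given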
Target sequence (P42568 whole entry, looked up): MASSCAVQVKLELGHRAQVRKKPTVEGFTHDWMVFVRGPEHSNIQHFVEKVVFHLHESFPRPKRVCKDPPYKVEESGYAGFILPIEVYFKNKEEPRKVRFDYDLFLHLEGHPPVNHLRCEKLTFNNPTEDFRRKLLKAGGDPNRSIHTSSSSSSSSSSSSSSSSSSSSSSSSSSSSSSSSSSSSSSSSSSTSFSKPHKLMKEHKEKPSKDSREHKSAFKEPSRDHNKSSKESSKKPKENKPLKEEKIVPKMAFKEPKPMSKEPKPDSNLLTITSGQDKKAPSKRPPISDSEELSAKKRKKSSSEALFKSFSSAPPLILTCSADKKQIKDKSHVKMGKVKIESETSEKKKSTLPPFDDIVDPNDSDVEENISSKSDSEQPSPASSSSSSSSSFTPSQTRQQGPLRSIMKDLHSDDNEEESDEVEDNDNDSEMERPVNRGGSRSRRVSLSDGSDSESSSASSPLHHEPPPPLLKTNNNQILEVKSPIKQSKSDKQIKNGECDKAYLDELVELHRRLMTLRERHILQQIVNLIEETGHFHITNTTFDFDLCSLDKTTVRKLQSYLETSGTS
Vif TR-FRET: HIV-1 Vif–A3G interaction blockers – biochemical, TR-FRET, GST-Vif 1-94, biotin-A3G peptide, dose response retest, primary screen (AID 1117319) | 260,000 tested, 0.57% active | TR-FRET GST-Vif / biotin-A3G peptide binding; higher % means a stronger effect; test concentration not given here; strong numbers were not always called active | inhibition, %, or IC50 in µM where a hit was titrated;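 active = above the screen mean plus three standard deviations and confirmed in dose response; inconclusive = results disagree or hit not tested in dose response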;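 also: Vif residues 1-94 fused to GST binding biotinylated APOBEC3G peptide 110-148; 0% = full assay without inhibitor and 100% = GST in place of GST-Vif; retest series ran down from 100 µM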
UCH37 DUB inh: human UCH37 deubiquitinating enzyme inhibition | Q9Y5K5 | purified proteasome/UCH37, Ub-AMC cleavage fluorescence | inhibition, % (concentration not given with the values) | 330,000 tested, 0.33% active;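 active = mean of two replicates above 20%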;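 also: 0% = compound-free wells with enzyme and 100% = wells lacking proteasome; stock transfer was 100 nL into about 20 µL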
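Test system – human UCH37 enzyme supplied as purified proteasome complex · Incubation – 30 min preincubation with enzyme, 25 min cleavage at room temperature · Detection – AMC fluorescence from Ub-AMC cleavage, excitation 355 nm, emission 460 nm · Benchmarks – no-proteasome wells (full inhibition) and compound-free wells (no inhibition)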
Ecoli growth: inhibitors of Escherichia coli growth; OD600, 23 h; active compounds read low; OD600 absorbance (no concentration beside the values); 330,000 tested, 0.21% active; AID 1053175;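 active = OD600 absorbance below the run mean of sample wells minus 3.6 SD, in any replicate, cut at about 0.56 in these data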;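 also: stock transfer was 300 nL into about 60 µL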
FGF22 binding: shifts melting point of recombinant human FGF22; recombinant FGF22 thermal shift, SYPRO orange fluorescence; percent of sucrose octasulfate shift, DMSO zero; 340,000 tested, 1.5% active; calls only at 9.99 µM; Q9HCT0;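 active = melting point raised past a set limit in the mean and every replicate; inconclusive = no clear call; three in four hits are not shown here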
RanGTP-Imp inh: disruptors of Ran-importin-beta complex formation – biochemical, FRET, CFP-Ran, YFP-importin-beta, homogeneous, primary screen; cell-free CFP-Ran/YFP-importin-beta FRET ratio; inhibition, % (concentration not given with the values); 300,000 tested, 1.1% active; AID 2216;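 active = most replicates above 15%; inconclusive = exactly half above 15%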;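 also: 0% = DMSO wells and 100% = Ran loaded with GDP instead of GTP; wells of about 40 µL received 100 nL stock; the first replicate is given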
Starred values were filed as active, the others as inactive; i = inactive; ? = inconclusive; / = not tested or not shown. This is a subset (hit frequency here may not be typical).

SMILES | HNF4A DNA FP | AF4-AF9 inh | Vif TR-FRET | UCH37 DUB inh | Ecoli growth | FGF22 binding | RanGTP-Imp inh
Cc1csc(NC(=O)CSc2nc(=O)cc(N)n2-c2ccc(F)cc2)n1 | 3.2 | -0.8 | / | 1.2 | 0.614 | i | 1.4
CSc1nc2ccc(NC(=O)CSc3nnc(N)s3)cc2s1 | 0.7 | 6.8 | 14.8% | 0.8 | 0.612 | i | ?
CC#CCCCC(=O)Nc1cc(OC)nc(OC)n1 | -2.0 | / | 0.1% | 3.7 | 0.737 | / | 2.4
O=C(Nc1ccccc1)c1ccsc1 | -3.2 | / | -1.1% | 0.1 | 0.688 | / | 1.3
Cc1sc(NC(=O)CSc2nnc(C)c(=O)[nH]2)c(C#N)c1C | -1.0 | / | 24.4% | 2.8 | 0.635 | / | -4.4
CC12CCC(C(=O)NCc3ccccc3Cl)(OC1=O)C2(C)C (centres undefined) | 2.1 | -0.1 | 4.3% | 4.9 | 0.705 | i | 0.0
CC1=C/C(=C\c2ccc(Br)o2)C(=O)O1 | -37.4 | -5.2 | ? | 2.1 | 0.722 | i | -1.8
CCC(C)(C)n1nnnc1C(c1cc(OC)ccc1OC)N1CCN(Cc2ccccc2)CC1 (centres undefined) | -3.0 | 10.7 | 1.8% | 2.5 | 0.734 | / | 1.0
Cc1ccccc1NC(=O)Cc1nc(COC(=O)COc2cccc(C)c2C)cs1 | -2.9 | -11.6 | -1.3% | 4.7 | 0.653 | i | 3.4
CC(C)(C)c1ccc(C(=O)NNC(=O)c2ccncc2)cc1 | 2.2 | -0.4 | / | 1.8 | 0.695 | i | 4.3
O=C(CNS(=O)(=O)c1cccc2nsnc12)NCc1ccc(Cl)cc1 | 1.6 | / | 24.4% | 3.6 | 0.702 | / | 4.9
NS(=O)(=O)c1ccc(NC(=O)C2CCCN(S(=O)(=O)c3ccc(F)cc3)C2)cc1 (centres undefined) | -2.5 | / | -11.9% | -1.8 | 0.683 | / | 0.2
COc1ccc(S(=O)(=O)Nc2ccc(S(=O)(=O)N3CCOCC3)cc2)cc1C | -1.3 | / | -1.2% | 3.1 | 0.788 | / | 0.3
O=C1/C(=C/c2cccs2)SC(=S)N1C1CCS(=O)(=O)C1 (centres undefined) | / | 4.3 | 0.4% | 7.5 | 0.637 | i | 2.0
COc1ccc(S(=O)(=O)N(C)c2ccc(C(=O)N3CCOCC3)cc2)cc1OC | 2.1 | -0.1 | 0.5% | 0.7 | 0.722 | i | 2.6
CCC(C)NCC(O)COCc1ccc(Cl)cc1 (centres undefined) | -3.5 | / | ? | 2.8 | 0.703 | / | 5.0
O=C1CCN(C(=O)c2cccs2)c2ccccc21 | -1.4 | -4.6 | -10.9% | 6.1 | 0.713 | i | -2.9
O=C(Nc1ccc(F)c(Cl)c1)c1cncs1 | 0.6 | 1.2 | / | 6.3 | 0.65 | i | 1.5
CCN(CC)c1ccc(/C=C(\C#N)c2ccccn2)cc1 | 88.6* | / | 5.3% | / | / | / | 44.6*
CN(C)C(=O)/C(=C\c1ccncc1)NC(=O)c1ccccc1 | -10.5 | -0.9 | / | 4.5 | 0.655 | i | 0.9

Overlap with the part before: 4 entries, then new ones.
SMILES | HNF4A DNA FP | AF4-AF9 inh | Vif TR-FRET | UCH37 DUB inh | Ecoli growth | FGF22 binding | RanGTP-Imp inh
O=C1CCN(C(=O)c2cccs2)c2ccccc21 | -1.4 | -4.6 | -10.9% | 6.1 | 0.713 | i | -2.9
O=C(Nc1ccc(F)c(Cl)c1)c1cncs1 | 0.6 | 1.2 | / | 6.3 | 0.65 | i | 1.5
CCN(CC)c1ccc(/C=C(\C#N)c2ccccn2)cc1 | 88.6* | / | 5.3% | / | / | / | 44.6*
CN(C)C(=O)/C(=C\c1ccncc1)NC(=O)c1ccccc1 | -10.5 | -0.9 | / | 4.5 | 0.655 | i | 0.9
C#CCOCCOCCOCCNc1nc(N2CCN(C(=O)Cn3cc(CCCCN)nn3)CC2)nc(N2CCN(C(=O)[C@H](CCCCN)n3cc(CCC(=O)O)nn3)CC2)n1 | -1.3 | -0.9 | / | -1.1 | / | i | /
Clc1ccc(-c2csc(Nc3ccccc3)[n+]2Cc2ccco2)c(Cl)c1 | -1.8 | -1.9 | 9.1% | 5.6 | 0.685 | i | 2.5
CCOC(=O)c1ccc(NC(=O)CCc2ccc(C)o2)cc1 | -1.3 | / | 22.9% | 2.0 | 0.697 | / | -3.6
CCOC(=O)c1c(NC(=O)COC(=O)Cn2cnc3ccccc32)sc(C)c1C | 0.6 | / | 6.4% | 0.5 | 0.718 | / | -2.1
O=C(NCc1ccccc1F)c1ccc(S(=O)(=O)N2CCCCCC2)cc1 | -1.9 | -0.9 | / | -2.9 | 0.72 | i | /
S=C(Nc1ccc2nc(-c3ccccn3)c(-c3ccccn3)nc2c1)N1CCOCC1 | -5.4 | 0.9 | 25.0% | 1.6 | 0.732 | i | -16.2
CN(CC(=O)Nc1cccc(S(=O)(=O)NC2=NCCC2)c1)Cc1ccccc1Cl | 1.7 | 2.0 | 5.4% | -0.6 | 0.601 | i | /
Brc1ccccc1/C=N/N1CCCCC1 | -2.7 | 0.2 | / | / | / | i | 2.8
CCOc1ccc(C2N(c3cc(C)on3)C(=O)C3CCCN32)cc1OC (centres undefined) | 1.8 | / | 0.2% | 2.4 | 0.655 | / | -3.8
COc1cccc(CN(C)C(=O)CN2C(=O)NC(c3ccccc3)(c3ccccc3)C2=O)c1OC | -0.4 | 1.1 | 4.6% | 1.6 | 0.686 | i | /
Cc1cc(C(=O)COc2ccc(C#N)cc2)c(C)n1-c1ccc2c(c1)OCO2 | 3.7 | -7.5 | / | 2.4 | 0.732 | i | 1.4
COc1ccc(-c2nc(N)n(C(=O)c3ccccc3)n2)cc1 | 2.1 | -0.1 | -2.1% | 0.6 | 0.679 | / | ?
CS(=O)(=O)Nc1ccc(Br)cc1C(=O)c1ccccc1 | 0.5 | / | ? | 2.4 | 0.669 | / | 1.5
O=C(CSc1ncccc1C(=O)O)NCc1ccc(F)cc1 | -0.3 | / | 3.4% | 5.2 | 0.682 | / | -10.1
CCOC(=O)c1c(C)c(C(=O)Nc2ccc(F)cc2)c(C)n1C | -2.0 | -11.3 | 3.0% | 3.2 | 0.688 | i | -1.2
CC1CCN(C(CNS(=O)(=O)c2ccccc2)c2ccccc2)CC1 (centres undefined) | -2.1 | -4.7 | -1.1% | 1.9 | 0.667 | i | /
O=C(O)C1C(C(=O)Nc2ccc(Cl)cc2)C2C=CC1C21CC1 (centres undefined) | -3.0 | / | ? | 2.7 | 0.719 | / | 1.9
O=C(NCCN1CCOCC1)Nc1ccc(F)cc1 | 0.9 | -1.4 | 15.6% | -0.5 | 0.704 | i | -2.4
O=C(/C=C/c1ccc(F)cc1)NC(=S)NNC(=O)c1cnccn1 | -0.3 | 2.7 | / | 7.5 | 0.663 | i | -1.2
Cn1cnnc1SCC(=O)NC1CCCCCC1 | 0.0 | 1.2 | -0.2% | 2.1 | 0.686 | i | 1.8
COc1ccc(CCNC(=O)CCc2ccc(OC)cc2)cc1 | 1.4 | 0.4 | / | 3.8 | 0.696 | i | -3.2
CC(C)(C)OC(=O)N1C(=O)[C@](OC(=O)c2ccccc2)(c2ccccc2)c2cccc(F)c21 | -2.3 | 0.8 | / | / | / | i | /
CC(Sc1ccc(Cl)cc1)C(=O)Nc1ccc2c(c1)OCO2 (centres undefined) | -0.6 | / | -6.2% | 1.9 | 0.692 | / | 0.4
CCOC(=O)N1CCN(Cc2nc3c(c(=O)n(C)c(=O)n3C)n2CCCc2ccccc2)CC1 | -1.8 | / | 2.9% | 5.2 | 0.701 | / | -3.1
O=C1CCCC/C1=C/Nc1cccc(C(F)(F)F)c1 | -1.1 | 0.8 | 0.1% | 0.2 | 0.709 | i | 2.3
CS(=O)(=O)N(CC(=O)NN=C1CCCCCC1)c1ccc(Oc2ccccc2)cc1 | -2.1 | -0.6 | 1.2% | 3.1 | 0.63 | i | -0.7
CC(C)(C)c1ccc(/C=C2\SC(=O)N=C2N)cc1 | -4.6 | -0.6 | -0.3% | 7.0 | 0.749 | i | 2.1
Cc1cc(S(=O)(=O)N2CCCOC2CNC(=O)C(=O)NCCc2ccco2)ccc1F (centres undefined) | -0.1 | 2.6 | -0.4% | 1.6 | 0.697 | i | -1.0
CCn1c(CC(=O)Nc2ccccc2)nnc1SCC(=O)Nc1ccccc1C(=O)OC | 5.2 | / | 2.2% | 5.2 | 0.704 | / | -4.7
CC1(Cc2ccccc2OC(F)(F)F)C(=O)Nc2c(Cl)ccc(Cl)c21 (centres undefined) | -5.6 | -4.6 | / | / | / | i | /
O=C(N=C1SC2CS(=O)(=O)CC2N1CCc1ccccc1)C1CC1 (centres undefined) | -0.4 | 0.3 | / | 2.2 | 0.69 | i | -0.3
Cn1c(SCC(=O)N2CCCCCC2)nnc1-c1ccco1 | 0.7 | -18.8 | / | 4.9 | 0.666 | i | 4.1
Cc1ccc(NC(=O)CCC(=O)OCC(=O)c2ccc(Oc3ccc([N+](=O)[O-])cc3)cc2)cc1 | 2.9 | -1.0 | -8.8% | 2.0 | 0.723 | i | 4.6
OC(c1ccccc1)(c1nc(-c2cc(F)cc(F)c2)cs1)C(F)(F)F (centres undefined) | -4.3 | -6.2 | / | / | / | i | /
O=C(CCCCl)Nc1nc(-c2ccc3c(c2)OCCO3)cs1 | 2.0 | -1.0 | 65.9% | 1.5 | 0.662 | i | 1.1
NC1=NC(=O)/C(=C/c2cccc(F)c2)S1 | -1.3 | 0.0 | -7.5% | 3.7 | 0.72 | i | -0.6
COc1ccc(S(=O)(=O)N[C@@H](C)C(=O)OCC(=O)Nc2cc3oc4ccccc4c3cc2OC)cc1 | -0.3 | 1.4 | -5.6% | -3.5 | 0.698 | i | 10.8
Cc1ccc(NC(=O)CSc2nnc(Cc3csc(C)n3)o2)c(C)c1 | -2.1 | 0.1 | -5.5% | 0.8 | 0.667 | i | 3.8
COC(=O)C1CCN(C(=O)Cc2ccc(Br)cc2)CC1 | 1.1 | / | -0.3% | 4.1 | 0.713 | / | 8.6
CC(C)(C)OC(=O)[C@H](Cc1ccccc1)NC(=O)c1[nH]cnc1C(=O)Nc1ccccc1F | 2.2 | 3.6 | / | / | / | i | /
O=C1c2cccc3cccc(c23)C(c2nc3ccccc3[nH]2)N1C1CC1 (centres undefined) | 0.3 | 0.1 | / | / | / | i | /
Cc1ccc(CN(c2ccc(C(=O)Nc3ccc4c(c3)OCO4)cc2)S(C)(=O)=O)cc1 | -1.7 | / | 4.0% | 2.3 | 0.629 | / | 5.9
O=C(Nc1ccc2c(c1)OCO2)N1CCCC1 | -0.7 | -0.3 | -5.5% | 4.3 | 0.658 | i | 6.7
CCOC(=O)CCCCCC(=O)Nc1ccc2c(c1)CC(=O)N([C@@H](C)CO)C[C@H](C)[C@@H](CN(C)Cc1ccccc1)O2 | 2.0 | -1.3 | / | 0.4 | 0.785 | i | /
COc1cc(N)c(Cl)cc1C(=O)OCC(=O)Nc1ccc(N2CCOCC2)cc1 | -0.6 | 2.1 | / | -1.9 | 0.698 | i | /
Cc1cccc(NC(=S)Nc2cccc(C(F)(F)F)c2)n1 | 1.4 | / | / | 2.4 | 0.698 | / | 0.7
C[C@H](CO)N1C[C@H](C)[C@@H](CN(C)S(=O)(=O)c2cccs2)Oc2ccc(NS(=O)(=O)c3ccccc3)cc2CC1=O | 0.6 | 1.4 | -1.6% | 0.2 | 0.724 | i | /
CN1CCc2c(C#N)c(N3CCOCC3)nc(NCC3CCCO3)c2C1 (centres undefined) | -2.5 | 0.9 | ? | -11.6 | 0.632 | i | 70.5*
